# Source: PubChem (several laboratories)
# INS promoter inh: TRM-6 insulin promoter activity inhibition; 0.9% of 130,000 active; inhibition, % at 2 µM; TRM-6 cells (human fetal islet line), insulin promoter-eGFP reporter, imaging; reporter expression induced with tamoxifen;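 active = inhibition above the mean plus 3 SD, with well images judged a real hit on visual review, cut at about 60% in these data, passing the limit was not always enough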
# PKD1 kinase inh: inhibitors of human PKD1 kinase; 0.056% of 200,000 active; inhibition, %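 (about 10 µM by stock and volumes)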; PKD1 kinase fluorescence polarization assay; Q15139;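 active = inhibition of 50% or more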;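 also: controls were vehicle for no effect and a reference inhibitor for full effect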
# HSV augment: HSV replication enhancement; HSV replication augmentation in cells, fold increase; maximum fold increase; 0.005% of 220,000 active;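 active = peak rise of 1.5-fold or more in the series; tested in PC3 cells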;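 also: first round at 10 µM; read as green reporter fluorescence; hits show the peak of a series up to 25 µM; 1 = signal of infected wells without compound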
# GALR2 ag: GALR2 (human) receptor agonism; AID 803; 0.48% of 140,000 active; activation, %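 (tested at 5 µM)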; GALR2-expressing cells, agonist activation read-out;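 active = above mean plus 3 SD of all compounds, about 5% in these data, not always enough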;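 also: 0% = vehicle buffer wells and 100% = reference agonist at full effect; tested in CHO reporter cells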
# Target sequence (O43603 whole entry, looked up): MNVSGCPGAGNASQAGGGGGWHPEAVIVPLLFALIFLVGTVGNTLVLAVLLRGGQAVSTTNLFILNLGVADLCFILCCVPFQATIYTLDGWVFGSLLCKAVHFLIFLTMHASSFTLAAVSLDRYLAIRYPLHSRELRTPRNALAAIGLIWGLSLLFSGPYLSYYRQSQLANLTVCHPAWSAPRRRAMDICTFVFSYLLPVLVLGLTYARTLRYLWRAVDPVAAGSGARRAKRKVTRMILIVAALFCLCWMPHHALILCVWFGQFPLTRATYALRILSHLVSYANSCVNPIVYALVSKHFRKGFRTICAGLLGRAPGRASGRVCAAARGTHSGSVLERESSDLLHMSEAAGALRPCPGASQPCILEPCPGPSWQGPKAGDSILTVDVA
# RGS16-Gao HTS: modulates binding between human RGS16 and Galphao | binding response (% of control), % at 10 µM | bead-based flow cytometry RGS16-Galphao binding, fluorescence; actives lie on both sides | O15492+P09471 | 0.38% of 220,000 active;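 active = below 25% or above 175%, edge rows of some plates excepted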;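 also: Galphao activated by GDP with aluminum fluoride before binding; 100% = wells without compound and 0% = beads without RGS; some results beyond the cut were filed as inactive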
# Target sequence (O15492 whole entry, looked up): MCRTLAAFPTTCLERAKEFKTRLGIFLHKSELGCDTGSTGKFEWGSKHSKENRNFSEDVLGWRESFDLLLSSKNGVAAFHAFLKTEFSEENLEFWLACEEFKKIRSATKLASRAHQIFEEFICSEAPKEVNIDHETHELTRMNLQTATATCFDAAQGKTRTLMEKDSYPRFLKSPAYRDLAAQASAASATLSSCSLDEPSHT
# Target sequence (P09471 whole entry, looked up): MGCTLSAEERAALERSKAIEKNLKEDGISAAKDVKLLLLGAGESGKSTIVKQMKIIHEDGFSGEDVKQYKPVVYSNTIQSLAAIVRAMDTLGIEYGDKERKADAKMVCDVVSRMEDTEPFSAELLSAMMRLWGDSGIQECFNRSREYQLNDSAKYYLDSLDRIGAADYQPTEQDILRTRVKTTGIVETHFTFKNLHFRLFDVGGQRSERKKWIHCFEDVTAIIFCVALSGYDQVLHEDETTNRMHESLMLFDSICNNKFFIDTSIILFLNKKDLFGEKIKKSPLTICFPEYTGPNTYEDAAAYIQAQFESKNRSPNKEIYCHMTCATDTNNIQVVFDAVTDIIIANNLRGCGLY
# INS promoter inh cell count: also measured in INS promoter inh; calls as there; normalized cell count, %; measured here: cell count, toxicity; reference of the scale not given here;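 cells exposed to compound for 48 h; stained nuclei by imaging scaled within each plate; lower means fewer cells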
# HSV augment primary fold: recorded beside HSV augment, whose call it bears; fold increase; compound at 10 µM; measured here: primary screen fold increase 10 uM; tested in PC3 cells;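 GFP signal in the first replicate; 1 = infected wells without compound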
# * marks the source's active call; other numbers are inactive results; i = inactive; · = no result given. Rows were taken by chance, and some 1.3% of all compounds hit somewhere here.
SMILES,INS promoter inh,INS promoter inh cell count,PKD1 kinase inh,HSV augment,HSV augment primary fold,GALR2 ag,RGS16-Gao HTS
CN(Cc1cccc2ncccc12)C(=O)CC1C(=O)NCCN1Cc1ccc(F)cc1 (stereo not given),-50.0,93.5,-0.3,i,0.97,·,113.2
Cc1ccc(S(=O)(=O)NC(C)(C)CSc2ncccn2)cc1,-33.3,126.4,3.3,i,1.06,·,99.5
Cc1cc(C)nc(N/N=C/C=C/c2ccccc2)n1,-35.7,99.3,-6.6,i,0.95,-2.2,102.7
Cn1c(SCC(N)=O)nnc1C1CCN(C(=O)NCc2ccccc2)CC1,38.7,139.5,-12.5,i,1.04,-2.4,107.6
Cc1c(C(=O)OCC[N+]2(C)CCCCC2)oc2ccccc12,50.0,100.0,-4.0,i,0.86,·,98.6
COc1ccccc1C1CC(=O)Nc2cc3c(cc21)OCCO3 (stereo not given),-4.0,11.6,-7.7,i,0.68,-0.3,101.2
O=C(O)C(c1ccccc1)C1(O)CCCC1 (stereo not given),3.3,171.4,2.2,i,0.98,-0.8,84.7
O=C(Cn1cnc2ccccc2c1=O)Nc1ccc(N2CCOCC2)cc1,·,·,-3.4,i,0.91,·,97.4
Cc1nn(CC(=O)NCCc2ccc(Cl)cc2Cl)c(C)c1[N+](=O)[O-],·,·,-2.7,i,1,0.0,109.7
Cc1ccc(Nc2nc(N3CCN(C)CC3)nc(N)c2[N+](=O)[O-])cc1C,-26.5,56.9,6.4,i,1.1,0.4,74.2
CCOC(=O)c1sc(NC(=O)CCCCl)nc1C,-36.7,96.7,-0.1,i,0.98,-1.4,101.8
Cc1cccc(NC(=O)c2ccc(NCCO)c([N+](=O)[O-])c2)n1,·,·,·,i,0.82,·,97.0
O=C(CCl)Nc1cn(-c2ccccc2)nc1-c1ccc(F)cc1,·,·,-5.2,i,0.91,·,97.8
c1ccc(COc2ccc(OCCCN3CCCC3)cc2)cc1,-20.7,128.2,-4.1,i,0.9,0.6,99.7
CCN(CC)c1ccc(NC(=O)COc2ccc(C#N)cc2)cc1S(=O)(=O)Nc1ccc(OC)cc1,-30.8,83.6,7.3,i,0.88,-2.9,103.6
CCOc1ccccc1-n1c(COc2ccccc2)nnc1SCC(N)=O,·,·,-4.8,i,0.9,-0.6,111.6
Cc1ccc(CN2CCN(CCC(C)C)C(CCO)C2)s1 (stereo not given),·,·,2.1,i,0.93,·,98.6
COc1ccccc1NS(=O)(=O)c1cc(NC(=O)c2cnccn2)ccc1N1CCOCC1,·,·,·,i,0.87,·,97.7
CN(C)S(=O)(=O)c1ccc(S(=O)(=O)N(CC(=O)Nc2ccccc2)CC2CCCO2)cc1 (stereo not given),·,·,-4.9,i,1,-0.4,83.2
Cn1c(=O)c2c(ncn2CCCc2ccccc2)n(C)c1=O,7.7,155.5,-11.0,i,0.84,-1.8,92.6
O=C(Nc1ccc(C(=O)O)cc1)/C(=C\C=C\c1ccccc1)NC(=O)c1cccc(Br)c1,·,·,2.7,i,0.93,·,98.0
COc1ccc(N2CCN(C(=S)Nc3cccc(C)c3)CC2)cc1,3.3,113.8,-7.5,i,0.91,-1.1,105.1
Cc1ccc(NC(=O)COC(=O)CN2CSCC2=O)cc1C,36.4,94.2,-2.5,i,0.993,-1.3,102.8
O=C1CC(N2CCN(Cc3ccc4c(c3)OCO4)CC2)C(=O)N1c1cccc(Cl)c1 (stereo not given),-10.7,87.8,5.3,i,0.75,-2.2,106.9
COc1ccc(N2C(=O)c3ccccc3NC2c2ccc(OC)c(Cn3nnc4ccccc43)c2)cc1 (stereo not given),12.9,83.3,6.5,i,0.96,1.6,105.8

# The list continues:
SMILES,INS promoter inh,INS promoter inh cell count,PKD1 kinase inh,HSV augment,HSV augment primary fold,GALR2 ag,RGS16-Gao HTS
Cc1ccccc1CSCCC(=O)NCCC1=CCCCC1,-7.1,137.4,-9.6,i,0.97,-0.6,93.9
O=[N+]([O-])c1cccc(C(=S)N2CCN(c3ccccc3F)CC2)c1,-133.3,88.6,-10.5,i,0.97,·,104.4
Cc1ccc(NC(=O)/C(=C\c2cccc([N+](=O)[O-])c2)NC(=O)c2cccs2)cc1,26.8,126.6,-2.1,·,·,-3.6,97.3
C/C(CC1CC(C)(C)OC1=O)=N/Nc1nc(-c2ccccc2)cs1 (stereo not given),·,·,8.5,i,0.99,-0.8,93.3
CS(=O)(=O)N1CCCC(C(=O)NCCCN2CCc3ccccc3C2)C1 (stereo not given),13.2,93.1,-1.6,i,0.98,-0.6,106.9
CCCCC(CCC(=O)Nc1ccn(-c2ccccc2)n1)C(=O)O (stereo not given),·,·,·,i,1.01,·,104.5
Cc1nc2oc(C(=O)c3ccc(Br)cc3)c(N)c2c2c1COC(C)(C)C2,63.6,83.9,2.5,i,0.81,0.8,102.3
COc1ccc(NC(=S)Nc2ccc(N(C)C(C)=O)cc2)cc1,5.3,94.4,2.4,i,1.11,·,101.7
Cc1cc(SCC(N)=O)nc(SCC(=O)c2ccccc2)n1,-38.7,64.7,-6.0,i,1.08,-0.3,102.1
Cc1nn(C)c(C(=O)Nc2ccc(S(=O)(=O)NC34CC5CC(CC(C5)C3)C4)cc2)c1Br,10.0,76.0,6.6,i,0.94,-0.2,142.3
Cc1cc2ncc(-c3ccc(Cl)cc3)c(N)n2n1,·,·,-4.2,i,0.87,-1.1,99.8
CC(C)(C)Cc1nnc(NC(=O)c2cc(-c3ccccc3)nc3ccccc23)s1,24.1,136.9,-1.0,·,·,-0.4,67.6
CCNc1nc(NCC)nc(OCCOC(C)=O)n1,21.1,71.8,-6.9,i,0.92,-1.1,67.0
Cc1cccc(NC(=S)NC(C)C(c2cccs2)N2CCN(C)CC2)c1C (stereo not given),·,·,·,i,0.97,·,98.0
COc1ccc(-c2cc(C(=O)NCCc3ccc(S(N)(=O)=O)cc3)c3ccccc3n2)cc1,·,·,-4.7,i,0.95,·,97.8
CCS(=O)(=O)Nc1cccc(C2=NN(S(=O)(=O)c3ccccc3)C(c3cccs3)C2)c1 (stereo not given),-29.0,104.1,-6.9,i,1.02,-1.2,104.0
O=C1CCNc2c(Cl)cc(Cl)cc21,·,·,·,i,1.22,·,100.2
O=C(Cc1cccs1)N1CCC(c2nc3c(nnn3Cc3ccc(F)cc3)c(=O)[nH]2)CC1,·,·,-9.6,i,1.27,-1.7,115.0
Cc1ccn2c(CNCCCn3cccn3)c(C(=O)N3CCCCCC3)nc2c1,·,·,-6.2,i,1.02,·,109.4
C/C(=N/NC(=O)CNC(=O)c1ccc2c(c1)OCO2)c1ccc2c(c1)CCCC2,-13.3,83.4,-1.0,i,0.91,·,105.6
COc1ccc(CCn2c(=N)c(C(=O)N3CCN(C)CC3)cc3c(=O)n4ccccc4nc32)cc1,·,·,8.4,i,0.92,7.5,98.6
Cc1csc(=Nc2c(C)n(C)n(-c3ccccc3)c2=O)n1-c1ccccc1,·,·,-0.7,i,0.96,·,100.6
CC(C)(C)c1cc(C(=O)NNc2cc(C(F)(F)F)ccc2Cl)n(Cc2ccccc2)n1,·,·,·,i,1.08,·,100.1
CCOC(=O)CCn1nc(-c2ccccc2)cc1N,·,·,-6.7,i,0.82,-2.0,98.3
C=CCNC(=S)NNC(=O)c1ccc2c(c1)OCO2,·,·,-7.4,i,0.88,-2.5,98.8

# Continued.
SMILES,INS promoter inh,INS promoter inh cell count,PKD1 kinase inh,HSV augment,HSV augment primary fold,GALR2 ag,RGS16-Gao HTS
CCOC(=O)c1cnc(-c2cccc(OC)c2)[nH]c1=O,-28.8,79.7,-9.5,i,0.93,-1.1,111.8
O=C(Nc1cccn(Cc2c(F)cccc2Cl)c1=O)NC1CCCCC1,·,·,-6.6,i,0.97,·,104.9
Cc1ccc(N(C)C(=O)C2CCCN2S(=O)(=O)c2cccc3nsnc23)cc1 (stereo not given),·,·,·,i,1.11,·,101.5
COc1ccc(C(=O)Nc2ccc3nc(C)sc3c2)cc1OC,-11.1,103.7,-1.1,i,1.02,·,96.3
CCCCCCn1c(C(C)O)nc2ccccc21 (stereo not given),30.8,71.2,21.4,i,0.96,-1.3,104.2
CCCC(=O)c1cc(F)c(N2CCN(CCC#N)CC2)cc1C,·,·,-20.9,i,0.99,-2.5,98.0
CCOc1ccccc1NC(=S)N(CCCN1CCOCC1)Cc1cn(C)c2ccccc12,-3.5,114.5,-11.1,i,0.8,0.3,98.8
O=C(Nc1ccccc1)c1ccc(NCCN2C(=O)CCC2=O)c([N+](=O)[O-])c1,·,·,-7.5,i,0.98,·,103.7
Clc1ccc(/C=N\Nc2ccccc2)cc1,·,·,·,i,0.98,·,107.9
CCc1ccc(NC(=O)N2CCC(c3ccccc3)C2)cc1 (stereo not given),·,·,4.6,i,0.88,·,100.2
CC1(c2ccc(Cl)c(Cl)c2)NC(=S)N2C1NC(=S)N2c1ccccc1 (stereo not given),-13.9,144.2,-1.1,·,·,-0.6,98.7
CC1CN(c2nnc(-c3ccccc3)c3ccccc23)CC(C)O1 (stereo not given),·,·,5.7,i,0.9,·,102.0
O=S(=O)(NCCNS(=O)(=O)c1cccs1)c1cccs1,-14.3,127.2,-3.9,·,·,-1.2,101.5
O=C(CN1CCc2ccccc21)Nc1ccc2c(c1)OCO2,-13.3,50.6,-12.9,·,·,-3.5,101.2
CC[C@H](CO)NCCN[C@H](CC)CO,-13.6,75.9,-7.2,i,0.93,-1.1,92.7
CSCCC(NC(=O)c1ccc(Cl)cc1)C(=O)OCC(=O)Nc1ccc(C#N)cc1 (stereo not given),·,·,0.8,i,0.88,-1.2,101.4
COc1ccc(-n2nnnc2SCC(=O)Nc2nnc(C)s2)cc1OC,-12.5,97.2,4.0,i,0.81,-0.3,102.3
CCOc1ccccc1Oc1c(C)oc2cc(OC(=O)N3CCOCC3)ccc2c1=O,·,·,-3.3,i,0.93,-2.9,105.3
O=C(COc1ccccc1)Nc1nonc1NC(=O)COc1ccccc1,27.8,68.8,-3.3,i,0.75,-0.3,90.6
O=C(c1ccc(N2CCC3(CC2)OCCO3)c([N+](=O)[O-])c1)N1CCOCC1,·,·,-1.8,i,0.99,·,98.7
Cc1cn2c(nc1=O)OC1CC2OC1CO (stereo not given),·,·,·,i,0.91,·,93.7
CC1(C)CC(=O)c2cnc(N3CCc4ccccc4C3)nc2C1,50.0,125.2,-6.3,i,0.9,-1.2,87.3
Oc1ccc2ccccc2c1C=NCc1cn2ccsc2n1,·,·,1.9,i,1.09,-2.6,90.7
CC1CCC(NC(=O)CN(C)S(=O)(=O)c2cccc3cccnc23)CC1 (stereo not given),·,·,·,i,0.81,·,19.5*
OC(COCc1ccccc1)CN1CCCC1 (stereo not given),-38.5,95.4,-1.3,i,0.74,-1.6,104.6

# 4 entries from above, set out differently:
CC1CN(c2nnc(-c3ccccc3)c3ccccc23)CC(C)O1 (stereo not given)
  INS promoter inh: · | INS promoter inh cell count: · | PKD1 kinase inh: 5.7 | HSV augment: i | HSV augment primary fold: 0.9 | GALR2 ag: · | RGS16-Gao HTS: 102.0

O=S(=O)(NCCNS(=O)(=O)c1cccs1)c1cccs1
  INS promoter inh: -14.3 | INS promoter inh cell count: 127.2 | PKD1 kinase inh: -3.9 | HSV augment: · | HSV augment primary fold: · | GALR2 ag: -1.2 | RGS16-Gao HTS: 101.5

O=C(CN1CCc2ccccc21)Nc1ccc2c(c1)OCO2
  INS promoter inh: -13.3 | INS promoter inh cell count: 50.6 | PKD1 kinase inh: -12.9 | HSV augment: · | HSV augment primary fold: · | GALR2 ag: -3.5 | RGS16-Gao HTS: 101.2

CC[C@H](CO)NCCN[C@H](CC)CO
  INS promoter inh: -13.6 | INS promoter inh cell count: 75.9 | PKD1 kinase inh: -7.2 | HSV augment: i | HSV augment primary fold: 0.93 | GALR2 ag: -1.1 | RGS16-Gao HTS: 92.7

# The list goes on.
SMILES,INS promoter inh,INS promoter inh cell count,PKD1 kinase inh,HSV augment,HSV augment primary fold,GALR2 ag,RGS16-Gao HTS
COC(=O)[C@@H](NC(=O)NCc1ccccc1F)C(C)C,15.4,100.0,-3.1,i,1.03,-0.1,89.4
CCC(C)c1ccc(OCc2ccc(C(=O)OC)o2)cc1 (stereo not given),·,·,·,i,0.91,·,99.2
CCC(=O)NC(c1ccc(OC)c(OC)c1)c1cc(Cl)c2cccnc2c1O (stereo not given),·,·,2.7,i,0.89,·,96.0
CC(=O)Nc1ccc(S(=O)(=O)Nc2cccc(NC(=O)C(C)(C)C)c2)cc1,-345.7,68.6,3.7,i,0.86,-1.1,101.2
COc1cc(N)n(S(=O)(=O)c2ccc(C)cc2)n1,·,·,2.6,i,1.15,·,102.5
O=C(O)COc1ccc(NC(=O)c2ccc(NC(=O)c3ccco3)cc2)cc1,·,·,-3.3,i,0.9,·,101.3
Oc1cccnc1CCc1ccccc1,·,·,-2.3,i,0.96,·,106.5
COc1ccc(F)cc1S(=O)(=O)Nc1ccc(C)cc1,13.6,96.9,1.2,i,1.03,-0.8,105.4
